gsp ag = gsp mutant agonism; gsp mutant cells, cAMP HTRF, 30 min; control for the full effect not named in the record; Potency, µM (doses to about 76.9 µM), inactives show at the highest dose activation (cAMP increase), usual class: activators; 0.13% of 340,000 active; active = well fitted activation curve with a large enough effect; inconclusive = small, poorly fitted or top-dose-only effect, or another doubt; inactive = no such curve, though single readings can be large or run the other way; cell line not stated here;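 further: phosphodiesterase inhibitor Ro 20-1724 added with compounds to block cAMP breakdown; potency means the concentration at half of the fitted maximal effect; nearly all actives have a fitted effect of over 60% in size; about a fifth of the inactives were tested at one dose only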
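Cells in DMEM/10% FBS with G418 were pretreated with compounds in DMSO plus […] (300 uM stock) for 30 min at 37C. cAMP was measured by HTRF (cAMP-d2 plus anti-cAMP antibody-K) after 30 min at room temperature.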
Menin-MLL FL inh = inhibitors of human menin-MLL interaction, wild-type MLL peptide. Fluorescence polarization, fluorescein-MLL peptide displacement from menin. AID 1766. 290,000 tested, under 10 active. FP activity change, % at 61.4 µM; inconclusive = falling polarisation curve, or a change in total fluorescence; inactive = total fluorescence flat and polarisation flat or rising; no compound was filed as active; the % refers to the polarisation; negative = inhibition;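 further: % of control where 0% means no effect; inhibitors lower the polarisation; unlabelled MLL peptide was the positive control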
ClpP mod = qHTS Assay for Activators of ClpP; Potency, µM (top dose mostly 57.5 µM), for the others: top-dose activity change, negative = active; 1.9% of 340,000 active; purified B. subtilis ClpP, FRET peptide cleavage, 20 min; active = well fitted falling curve with a large enough effect; inconclusive = small, poorly fitted or top-dose-only effect; inactive = no such curve, though single readings can be large or run the other way; further: potency means the concentration at half of the fitted maximal effect; the source files actives as falling curves though it sought activators and does not explain the sign; nearly all actives have a fitted effect of over 65% in size; many hits overshoot -100%
Target sequence (P80244 whole entry, looked up): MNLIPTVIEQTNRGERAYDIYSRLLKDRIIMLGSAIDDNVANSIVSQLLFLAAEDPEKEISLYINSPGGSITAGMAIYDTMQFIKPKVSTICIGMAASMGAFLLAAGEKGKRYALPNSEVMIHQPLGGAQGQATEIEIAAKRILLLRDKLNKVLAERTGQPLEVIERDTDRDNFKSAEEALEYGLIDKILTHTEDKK
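Purified B. subtilis ClpP, 10 microg/mL final in Tris/HCl pH8 with KCl, BSA, glycerol and Tween-20, cleaved an Abz/nitrotyrosine-quenched decapeptide. Fluorescence (ex 320, em 430) was read at 0 and 20 min at room temperature. Delta was normalized to 5.8 microM ADEP and DMSO/no-enzyme controls.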
Sfp PPTase inh = blocks B. subtilis Sfp PPTase activity; Q9F4F7; Biochemical Sfp PPTase activity, qHTS; Potency, µM, inactives show max response, negative = inhibition, usual class: inhibitors; 3.5% of 310,000 active; AID 1490; active means well fitted inhibition curve with a large enough effect; inconclusive means small, poorly fitted or top-dose-only effect, or another doubt; inactive means no such curve, though single readings can be large or run the other way;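 further: the enzyme is Sfp with the accession as filed and its product quenches rhodamine fluorescence; potency means the concentration at half of the fitted maximal effect; 0% = enzyme reaction without inhibitor and -100% = no enzyme wells; top concentration of the series not given in the record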
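Step 1, compound plus 15 nM Sfp-PPTase, 15 min, room temperature. Step 2, add rhodamine-CoA (5 uM) and BHQ-2-YbbR (12.5 uM). Step 3, read 525/598 nm fluorescence at 0 and 30 min.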
D2 potentiator = human D2 receptor positive allosteric modulation. DiscoveRx D2 beta-arrestin cells, luminescence, 90 min; 100% = 57 uM dopamine signal. potentiation, % (no concentration beside the values). 0.23% of 360,000 active. AID 624464; active = potentiation of 50% or more; inconclusive = 30% to 50%; inactive = 30% or less;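 further: compound concentration not given in the record; tested on top of an EC20 dose of dopamine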
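PathHunter D2 cells, attached overnight at 37 deg C, received compound in DMSO plus dopamine at EC20 (50 nM final) for 90 min at 37 deg C. Beta-arrestin recruitment was read as luminescence after 1 h with detection reagent at ambient temperature.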
TRPV1 potentiator = potentiators of human vanilloid receptor 1 (TRPV1); potentiation, % at 8.33 µM; Q8NER1; AID 540277; 0.02% of 320,000 active; TRPV1-expressing cells, Fluo-8 calcium influx, capsaicin EC20 potentiation; host cell line not named in the record; control for the full effect not named in the record; active means potentiation above 80%; inconclusive means 30% to 80%; inactive means below 30%; further: 0% is about no effect
Target sequence (Q8NER1 whole entry, looked up): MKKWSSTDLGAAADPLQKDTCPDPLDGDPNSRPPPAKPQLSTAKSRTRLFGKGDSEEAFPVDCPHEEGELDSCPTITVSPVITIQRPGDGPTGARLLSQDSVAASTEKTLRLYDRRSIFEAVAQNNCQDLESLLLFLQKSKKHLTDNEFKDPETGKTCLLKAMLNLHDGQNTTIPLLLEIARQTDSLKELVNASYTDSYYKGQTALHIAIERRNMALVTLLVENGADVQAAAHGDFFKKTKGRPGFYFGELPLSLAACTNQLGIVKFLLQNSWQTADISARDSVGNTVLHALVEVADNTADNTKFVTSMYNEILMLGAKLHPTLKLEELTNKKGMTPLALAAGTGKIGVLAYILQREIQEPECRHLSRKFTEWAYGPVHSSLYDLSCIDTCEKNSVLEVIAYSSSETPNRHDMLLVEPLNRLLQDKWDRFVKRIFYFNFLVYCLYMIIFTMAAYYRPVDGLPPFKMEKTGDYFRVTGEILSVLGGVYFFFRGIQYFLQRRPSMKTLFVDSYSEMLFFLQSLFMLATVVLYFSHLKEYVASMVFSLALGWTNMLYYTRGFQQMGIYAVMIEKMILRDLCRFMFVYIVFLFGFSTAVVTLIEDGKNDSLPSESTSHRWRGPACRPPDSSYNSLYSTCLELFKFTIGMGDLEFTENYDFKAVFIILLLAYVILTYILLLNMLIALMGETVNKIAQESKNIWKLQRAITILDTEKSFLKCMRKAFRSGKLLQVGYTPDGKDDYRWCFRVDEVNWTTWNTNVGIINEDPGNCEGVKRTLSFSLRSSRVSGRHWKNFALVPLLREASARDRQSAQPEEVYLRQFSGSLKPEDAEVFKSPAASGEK
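Fluo-8 calcium influx in TRPV1-expressing cells, kinetic read (ex 480/em 520 nm). Compound added and read 3 min for agonist activity, followed by capsaicin at EC20 final and 2 min further read for enhancement.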
gsp antagonist = antagonizes gsp, the McCune-Albright syndrome mutation; gsp-mutant cells, cAMP HTRF, 30 min; control for the full effect not named in the record; Potency, µM (series often up to 76.9 µM), without a hit: at the top dose activity change, negative = inhibition, most hits filed as inhibitors; 0.4% of 340,000 active; active = falling curve of any shape with a large fitted effect; inconclusive = falling curve, mostly with a smaller effect; inactive = flat or rising curve; cell line not stated here;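 further: intracellular cAMP measured with PDE inhibitor Ro 20-1724 present during compound exposure; potency means the concentration at half of the fitted maximal effect; on the % scale 0 is the no-effect control and ±100 the full control effect; nearly all actives have a fitted effect of over 65% in size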
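HTRF cAMP measurement after 30 min RT detection following 30 min, 37C compound treatment alongside […] (added as 300 uM solution) in G418-selected cells seeded at 2000/well and grown 16–24 h.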
Active calls of the source: *; ? = inconclusive; . = no result given; & = joins results of further samples; [ ] = dose if it differs, or a comment. Not a hit list (roughly 5.1% active in at least one column).

SMILES | gsp ag | Menin-MLL FL inh | ClpP mod | Sfp PPTase inh | D2 potentiator | TRPV1 potentiator | gsp antagonist
CCN(CC(=O)NCc1cccs1)C(=O)/C=C/c1cc(Br)ccc1OC(F)F | 26% | . | -2.5% | . | -2 | -10 | -18%
O=C(CSc1ccc2nnc(-c3ccccn3)n2n1)Nc1ccccc1 | -20%[15.4 µM] | 0.3 | -7.8% | 7% | -7 | 4 | 14%
CCCCn1c2ccccc2c2nnc(SCC(=O)NC3=NN=C(c4ccccc4)CS3)nc21 | . | 3.8 | . | -4% | . | 6 | .
COC(=O)[C@H]1C[C@H](OC(=O)NCc2ccccc2F)[C@@]2(O)CN(S(=O)(=O)c3ccc(C)cc3)CC2[C@H]1C(=O)OC (stereo partly specified) | 8% | . | 2.2% | . | 5 | . | .
Cc1nc(NCc2ccco2)c2oc3ccccc3c2n1 | 11% | 0.2 | 14µM* | -3% | -21 | -16 | -4%
COc1ccc(-c2ccc(F)cc2)cc1[C@H]1[C@H]2C=CC[C@@H](C)[C@@H]2C(=O)N1Cc1ccccc1 | . | 1.1 | -29% | -4% | -4 | -5 | -5%
CSCc1ccc(C(=O)Nc2ccc(C(N)=O)cc2)cc1 | -61%[inhibitor] | -3.6 | -2.3% | 6% | -9 | -12 | -3%
CCc1noc(C)c1C(=O)N1CCCC(N2CCN(c3ccc(F)cc3)CC2)C1 (stereo unspecified) | 13% | . | -2.8% | . | -22 | . | 6%
S=c1[nH]nc(-c2ccccn2)n1/N=C/c1ccc(-c2ccccc2Cl)o1 | -1%[15.4 µM] | -9.7 | -1.9% | -6% | -15 | 6 | ?
Cc1cccc(C2c3[nH]c4ccccc4c3CCN2Cc2cccn2-c2ncccn2)c1 (stereo unspecified) | -18%[15.4 µM] | -1.7 | . | -25% | -9 | -3 | -14%
O=C(COc1ccc(S(=O)(=O)N2CCOCC2)cc1)Nc1ccc(Br)cc1 | 8% | . | 1.9% | . | -32 | . | -17%
O=C(Nc1ccc(S(=O)(=O)NC2=NCCCCC2)cc1)c1cc(F)c(F)cc1Cl | -33%[inhibitor] | . | -1.3% | . | -8 | 1 | 15%
Cc1ccc(NS(=O)(=O)c2cccc(C(=O)NCC(c3ccco3)N3CCCCC3)c2)cc1 (stereo unspecified) | -27% | 3.7 | -1.1% | 2% | -35 | 2 | -10%
O=C(CCC(=O)Nc1ccccc1Cl)NNC(=O)NC1CCCCC1 | 20% | . | -0.8% | 3% | 0 | -8 | 6%
CC(=O)Nc1ccc(NC(=O)COC(=O)c2cnccn2)cc1 | -22% | 1.6 | . | 19% | -6 | -2 | -7%
Cc1cc(C)c2[nH]c(C(=O)Nc3ccc4c(c3)OCO4)cc2c1 | -22% | 5.4 | -5.8% | -22% | -8 | -8 | -16%
Cc1nnc(SCC(=O)Nc2ccc3c(c2)OCO3)o1 | ? | 0.2 | 0.3% | 20% | -15 | 3 | -7%
CCOC(=O)CSc1nnc(N)s1 | 2% | 0.0 | -0.9% | -2% | -25 | -6 | 5%
C=CCn1c(SCC(=O)NCc2ccc3c(c2)OCO3)nnc1C1COc2ccccc2O1 (stereo unspecified) | 2% | 2.5 | 0.1% | -1% | -7 | -1 | -3%
COc1ccccc1NS(=O)(=O)c1ccc(NC(C)=O)cc1 | -37%[inhibitor] | 2.0 | 1.6% | -3% | -1 | 0 | 1%
Cc1ccc(-c2ccc(=O)n(Cc3c(F)cccc3Cl)n2)cc1 | 5%[15.4 µM] | 4.8 | -2.3% | -24% | -3 | -16 | -18%
COc1cc2cc(CN(Cc3nnnn3Cc3ccco3)C3CCCCC3)c(=O)[nH]c2cc1OC | -1% | ? | ? | 10µM* | -33 | 5 | -4%
O=C(COC(=O)c1ccc(S(=O)(=O)N2CCCC2)cc1)NCc1ccc(Cl)cc1 | -23% | -1.1 | ? | 3% | -2 | -16 | -1%
O=C(O)C(Cc1ccc(OS(=O)(=O)Cc2ccccc2)cc1)NS(=O)(=O)Cc1ccccc1 (stereo unspecified) | 11% | . | . | . | -3 | . | 8%
Clc1ccc2c(c1)C(N1CCNCC1)=Nc1ccccc1O2 | . | -3.7 | 1.1% | 10%&-28%&-3%&3% | -11 | -1 | -5%
Cc1cc(C(=O)CSc2nnc3ccccn23)c(C)n1-c1ccccc1 | -14% | 1.7 | -0.9% | 5% | -19 | -9 | -4%
Cc1c(NC(=O)c2ccc(Br)o2)cccc1C(=O)O | -39% | -0.2 | -2.4% | 20% | -3 | 4 | 18%
Cc1occc1C(=O)NC(C)c1ccc2c(c1)OCO2 (stereo unspecified) | -6% | 1.5 | 0.4% | 0% | -8 | -5 | 8%
Cc1nn(CC(=O)NCc2ccccc2F)c(C)c1[N+](=O)[O-] | -1%[15.4 µM] | 3.5 | . | 14% | -4 | 13 | -3%
CCOC(=O)NC(=O)/C(C#N)=N/Nc1ccc(F)cc1 | 20% | 1.5 | -0.6% | -15% | -7 | -4 | 25µM*
Cc1ccc(Cl)cc1NC(=O)C1C2CCC(O2)C1C(=O)O (stereo unspecified) | -18% | 0.1 | 1.0% | 7% | -4 | ? | 17%
CCC(C)NC(=O)c1cc(-c2ccc(OC)cc2)on1 (stereo unspecified) | -15% | 1.4 | -13% | 8% | -8 | 4 | -7%
COc1cc(NC(=O)CSc2nc3ccccc3c(=O)n2C)ccc1NC(=O)c1ccco1 | -16% | 1.3 | 41% | -5% | -4 | 1 | -18%
COc1ccccc1NS(=O)(=O)c1cccc(C(=O)NN)c1 | 25% | 7.0 | -2.7% | -12% | 11 | -2 | -11%
Cc1ccc(CNC(=O)Cn2cccc2C(=O)c2ccccc2)cc1 | -8% | 3.5 | -1.7% | 8% | -7 | 15 | 0%
O=C(CCn1c(=O)[nH]c2ccsc2c1=O)N1CCN(c2ccc([N+](=O)[O-])cc2)CC1 | 29% | -6.6 | . | 4% | -1 | 3 | -35%
Cn1cc(-c2nnc(-c3ccccc3)o2)c2ccccc21 | -19% | 0.0 | 14µM* | 16% | -6 | -6 | -5%
COC(=O)C1=C(CCc2ccccc2)NC(=O)NC1c1ccc(Br)cc1 (stereo unspecified) | 24% | 4.1 | 0.7% | -5% | -4 | 30 | -1%
CCN(CC(=O)Nc1c(F)cccc1F)C(=O)Cc1ccsc1 | 0% | . | -3.7% | . | 2 | 1 | 1%
COc1cccc(C(=O)NNc2c3ccccc3nc3ccccc23)c1 | -7%[15.4 µM] | -0.1 | -1.8% | -16% | -10 | 2 | -29%
COc1ccc(-c2cc(C(=O)Nc3sc4c(c3C#N)CCCC4)c3ccccc3n2)cc1OC | -13% | 5.7 | -7.5% | -2% | -8 | 2 | -9%
CCOC(=O)C1=C(NC(=S)NC(=O)c2ccccc2)c2ccccc2CC1C(C)C (stereo unspecified) | -21% | 1.4 | 3.6% | 10% | -25 | -8 | -13%
CCOC(=O)c1sc(NC(=O)/C=C/c2c(F)cccc2Cl)nc1C | -1% | 8.8 | -2.2% | 8% | -14 | -5 | 8%
CCOC(=O)C1C(=O)CC(C)(O)C(C(=O)OCC)C1c1cccc(OC)c1 (stereo unspecified) | -43%[inhibitor] | -1.8 | 1.4% | 16% | -8 | -2 | 8%
COc1ccccc1-n1cnnc1SCC(=O)Nc1ncc(Cl)cc1Cl | 3% | -1.1 | 0.7% | 9% | -30 | 23 | 2%
Cc1cc(C)c(C)c(S(=O)(=O)Nc2ccccc2C(=O)NCCCN2CCOCC2)c1C | -16% | 0.5 | 3.3% | -6% | -15 | 17 | -4%
Cc1cc(C)n(-c2nc3c(c(=O)[nH]c(=O)n3C)n2C)n1 | 0% | 0.4 | -5.0% | 14% | 8 | -4 | -4%
O=C(O)C(c1ccccc1)C1(O)CC2CCC1C2 (stereo unspecified) | 9% | . | 1.6% | . | -23 | . | -2%
O=c1cc(SCc2ccccc2)nc[nH]1 | -18% | . | 2.4% | . | 7 | . | 5%
CC(Oc1cccnc1[N+](=O)[O-])C(=O)Nc1ccc(Cl)cn1 (stereo unspecified) | -4% | . | -0.8% | . | -3 | -7 | 0%

(listing goes on)
SMILES | gsp ag | Menin-MLL FL inh | ClpP mod | Sfp PPTase inh | D2 potentiator | TRPV1 potentiator | gsp antagonist
CCOc1cc(CNc2ccccc2)cc(Br)c1OCc1ccccc1F | -4% | 2.9 | -0.6% | 1% | -4 | 9 | 0%
Cc1c2c(nc3c(C(=O)NC4CCCCC4C)cnn13)CCCC2 (stereo unspecified) | . | -0.7 | . | -7% | . | -21 | .
CCOc1ncccc1C(=O)NCCc1ccc(OC)cc1 | 6%[15.4 µM] | -0.9 | . | -2% | 0 | -15 | 12%
CCC1CCCCN1C(=O)CSc1nnc(-c2ccc(Cl)cc2)o1 (stereo unspecified) | -3% | -1.1 | -2.1% | -5% | -1 | -1 | 4%
Cc1cccc(C(=O)OCC(=O)NC23CC4CC(CC(C4)C2)C3)c1O | 5%[15.4 µM] | . | -3.1% | . | -23 | . | 0%
O=[N+]([O-])c1cccc(CON=Cc2cc(Cl)ccc2O)c1 | -25% | . | 0.4% | . | -1 | . | .
CC1CCN(C(=O)c2ccc(N3C(=O)c4ccccc4C3=O)cc2)CC1 | -3%[15.4 µM] | -1.4 | 1.2% | -2% | -2 | 0 | 0%
CCOC(=O)c1cc2sccc2n1Cc1ccc(C#N)cc1 | -47%[inhibitor] | 4.2 | 0.2% | 0% | -7 | -13 | 4%
CCNC(=O)COc1ncnc2scc(-c3ccc(F)cc3)c12 | ? | 3.0 | -1.5% | 10% | 0 | 3 | 3%
COc1ccc(-n2c(SCC(=O)Nc3cccc(C(=O)O)c3)nnc2-c2ccco2)cc1 | -2%[15.4 µM] | 3.6 | 0.2% | -5% | -5 | 19 | 3%
C/C(=N\NC(=O)c1ccn(C)n1)c1ccc(NC(=O)c2cccc(F)c2)cc1 | -5% | . | -1.0% | 9% | 12 | -1 | 0%

Screens deposited in PubChem by National Center for Advancing Translational Sciences (NCATS).
